Rango-impB inh – Rango-importin beta binding inhibition; Q14974; Rango CFP/YFP FRET sensor + importin beta, 45 min; Potency, µM (doses to about 92.2 µM), for the others: at the highest dose inhibition of complex formation; hit rate 0.031% among 340,000; active = rising FRET ratio curve, often small or poorly fitted; inconclusive = mostly compound fluorescence or quenching in the first reads; inactive = flat curves in all reads;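 further: potency means the concentration at half of the fitted maximal effect; 0% = DMSO wells and 100% = buffer wells lacking importin beta; nearly all actives have a fitted effect of over 15% in size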
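Inhibition scored from the CFP 486 nm/YFP 530 nm FRET ratio 45 min after adding 0.125 microM importin beta to 50 nM Rango biosensor preincubated 5 min with compound (room temperature, PBS with DTT, Tween-20, BSA). No-importin wells as positive control.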
Rango release inh – inhibition of RanGTP-driven Rango-importin beta dissociation; O95149+P62826; Biochemical FRET Rango-importin beta, RanGTP-induced dissociation; Potency, µM (highest dose often 46.1 µM), without a hit: top-dose activity change, negative = inhibition; hit rate 0.071% among 340,000; AID 540253; active means falling FRET ratio curve, often poorly fitted, with flat reads before Ran was added; inconclusive means other falling curves, or compound fluorescence or quenching; inactive means flat or rising ratio curve;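 further: potency means the concentration at half of the fitted maximal effect; % of control where 0% means no effect; nearly all actives have a fitted effect of over 45% in size; -100% = wells without RanGTP and RCC1; the record marks most hits as doubtful in a second field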
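Compounds sat 5 min at room temperature with 0.1 uM Rango biosensor plus 0.25 uM importin beta, then FRET pre-read. RanGTP-RCC1 (0.6 uM Ran, 2mM GTP, 0.2 uM RCC1) added for 45 min, and the CFP/YFP post-read measured blocked complex dissociation.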
miR-21 reporter – raises the signal of a miR-21 reporter | Potency, µM (titrated, usually from 38.3 µM), for inactives: at the top dose reporter change, positive = more light | 340,000 tested, under 10 active | HeLa miR-21 FLuc reporter, luciferase, 48 h; active = well fitted rising curve with a large enough effect; inconclusive = small, poorly fitted or top-dose-only effect; inactive = no such curve, though single readings can be large or run the other way;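 further: % of control where 0% means no effect; miR-21 action dims this reporter so a rising signal means less miR-21 action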
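Compounds were titrated across several concentrations (up to approximately 40 uM) and incubated 48 hours with HeLa miR-21-FLuc reporter cells (miR-21 target sequence downstream of FLuc, endogenous miR-21). Readout was firefly luciferase luminescence after lytic detection reagent.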
GLA inh pH 4.5 – inhibitors of human alpha-galactosidase A at pH 4.5; activity change, negative = inhibition, % at 105 µM; purified enzyme, 4-MU-alpha-Gal fluorescence, pH 4.5; 230,000 tested, under 10 active; inconclusive = small, poorly fitted or top-dose-only inhibition, or a rising curve; inactive = flat fitted curve, though single readings scatter; no compound was filed as active;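 further: 0% = full activity with enzyme and -100% = basal without enzyme; dose as in the result columns while the protocol names 77 µM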
Target sequence (P06280 whole entry, looked up): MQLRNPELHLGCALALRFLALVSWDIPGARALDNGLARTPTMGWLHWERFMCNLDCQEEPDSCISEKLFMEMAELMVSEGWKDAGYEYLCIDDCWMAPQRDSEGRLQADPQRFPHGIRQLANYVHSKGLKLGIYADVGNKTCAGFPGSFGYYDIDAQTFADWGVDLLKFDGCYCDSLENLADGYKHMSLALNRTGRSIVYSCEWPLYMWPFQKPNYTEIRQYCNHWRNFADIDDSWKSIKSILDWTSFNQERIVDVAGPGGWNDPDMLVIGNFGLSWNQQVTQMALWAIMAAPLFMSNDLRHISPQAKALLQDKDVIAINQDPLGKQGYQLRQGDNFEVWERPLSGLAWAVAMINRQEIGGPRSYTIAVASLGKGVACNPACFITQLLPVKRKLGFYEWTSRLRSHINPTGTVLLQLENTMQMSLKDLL
An asterisk follows results filed as active; ? = inconclusive; nt = not tested or not shown; & = joins results of further samples. An excerpt. The share of hits here may be higher or lower than overall.

SMILES	Rango-impB inh	Rango release inh	miR-21 reporter	GLA inh pH 4.5
COc1ccc(C(=O)n2cc(C(C)=O)c3ccccc32)cc1	-0.1%	-3%	12%	nt
Cc1ccc(NC(=O)C(OC(=O)c2ccc(O)cc2)c2ccccc2)cc1Cl (centres undefined)	1.1%	-1%	-1%	-13
COc1cc(OC)c(N(C)S(=O)(=O)c2cccc(C(=O)OCC(=O)NCc3ccco3)c2)cc1Cl	-1.4%	-3%	4%	-6
Cc1cc(N2CCN(c3cccc(C(F)(F)F)c3)CC2)n2nc(C)nc2n1	1.9%	-7%	0%	-1
CC(=O)Nc1ccc(N2C(=O)CSC2c2ccccc2)cc1 (centres undefined)	1.8%	2%	4%	nt
O=C(COC(=O)c1ccc2ccccc2n1)c1ccccc1	-0.2%	-1%	2%	0
CC(=O)c1ccc(N2CCN(CC(O)COC(c3ccccc3)c3ccccc3C)CC2)cc1 (centres undefined)	0.1%	6%	5%	nt
Cc1ccc(C)c(OCCN2CCOCC2)c1	3.7%	0%	-4%	nt
O=c1ccc(C(F)(F)F)cn1Cc1cc(=O)n2cc(Br)ccc2n1	-0.1%	-7%	-8%	0
Cc1ccc2cccc(NC(=O)C(F)(F)F)c2n1	?	-11%	-9%	11
CC(C)c1ccccc1NC(=O)c1cnccn1	2.2%	2%	-9%	-11
COc1cc(OC)c(NS(=O)(=O)c2cn(C)cn2)cc1Cl	-3.9%	1%	-4%	nt
COc1ccc(CNCC(O)(c2ccc(F)cc2)c2ccc(F)cc2)cc1	1.1%	0%	7%	-12
Cc1c(C)n(CCC#N)c2ccccc12	-4.0%	1%	-1%	4
Cc1ccc2c(c1)Oc1ccccc1C=C2C(=O)O	2.4%	40%	1%	-1
CCN(CC(=O)Nc1ccccc1C(F)(F)F)C(=O)C1CC(=O)N(Cc2ccccc2)C1 (centres undefined)	-0.1%	3%	nt	nt
O=C(COc1ccccc1F)c1ccc(O)cc1O	1.8%	6%	-57%	1
CC(NC(=O)CSc1nc(=O)cc(N)n1CCc1ccccc1)c1ccccc1 (centres undefined)	0.3%	-3%	2%	-20
CC1CCCN(C(=O)CNC(=O)c2cccs2)C1 (centres undefined)	-4.7%	-3%	nt	nt
CC(C)C(=O)Nc1ccc(C(=O)CSc2nnc(C3CC3)n2C2CC2)cc1	-1.1%	-5%	nt	nt
Cc1ccc(CNC(=O)COC(=O)c2cc3c(s2)CCC(C)C3)cc1 (centres undefined)	-2.4%	-8%	-4%	3
CSc1nc2ccc(NC(=O)c3ccc(=O)[nH]c3)cc2s1	-0.1%	-6%	-14%	nt
CC(C)(C)c1ccc(C(=O)NCC(=O)NCc2ccccn2)cc1	5.4%	23%	nt	nt
Cc1ccc(-c2nc(SCC(=O)N(C)C3CCS(=O)(=O)C3)[nH]c2-c2ccc(C)cc2)cc1 (centres undefined)	5.7%	12%	4%	0
O=C(CCN1CCN(C(=O)c2ccccc2)CC1)c1ccc(Br)cc1	0.0%	-1%	2%	nt
CC(Sc1nnnn1C1CC1)C(=O)N1CC(=O)Nc2ccccc21 (centres undefined)	-4.5%	-9%	nt	nt
CCN1C(=O)c2ccc(C(=O)Nc3ccc4c(c3)OCO4)cc2C1=O	1.8%	13%	-38%	nt
COC(=O)CN1C(=O)[C@H]2[C@@H](/C=C/c3ccccc3)N3C(=O)CN(Cc4ccccn4)C(=O)[C@@]3(Cc3ccccc3)[C@H]2C1=O	-0.2%	-13%	nt	nt
Cc1c(C(=O)O)cnc2c([N+](=O)[O-])cnn12	4.3%	9%	-4%	-29
O=C(CCN1CCN(c2ccc(F)cc2)CC1)Nc1ccccc1F	-4.0%	-3%	-8%	-3
Cc1cc(C)cc(N=c2c([N+](=O)[O-])nn(-c3ccc(Cl)cc3)n2O)c1	-5.2%	0%	-3%	4
CCOC(=O)c1nn(-c2ccc(F)cc2)c(C)c1C(C)=O	1.5%	-2%	-10%	2
COC(=O)[C@H]1CCCN1C(=O)Nc1cccc(Oc2c(F)c(F)c(F)c(F)c2F)c1	-2.8%	-6%	-6%	nt
COc1cc(C(=O)NNC(=O)CCOc2ccccc2C)cc(OC)c1OC	1.1%	0%	nt	nt
CCON1C(=O)C(C)(C)N(OCC)C(=O)C1(C)C	0.1%	-3%	1%	-2
C=CCc1ccccc1OCC(O)CNC(=O)c1ccccc1C(=O)O (centres undefined)	-0.6%	7%	-7%	-7
O=C1CC(N2CCN(c3ccc(F)cc3)CC2)C(=O)N1Cc1ccc(N2CCCC2=O)cc1 (centres undefined)	1.6%	-4%	18%	-4
Nc1c(C(=O)OCC2CCCO2)c2nc3ccccc3nc2n1-c1ccc2c(c1)OCCO2 (centres undefined)	?	0%	-14%	-6
Cc1ccsc1C(=O)N1CCN(S(=O)(=O)c2cccs2)CC1	-3.6%	-20%	2%	-2
O=C(O)C1CCN(Cc2cccnc2)CC1	0.4%	-8%	-1%	5

Reformatted bar-delimited: entries from further up.
mol | Rango-impB inh | Rango release inh | miR-21 reporter | GLA inh pH 4.5
COC(=O)[C@H]1CCCN1C(=O)Nc1cccc(Oc2c(F)c(F)c(F)c(F)c2F)c1 | -2.8% | -6% | -6% | nt
COc1cc(C(=O)NNC(=O)CCOc2ccccc2C)cc(OC)c1OC | 1.1% | 0% | nt | nt
CCON1C(=O)C(C)(C)N(OCC)C(=O)C1(C)C | 0.1% | -3% | 1% | -2

Next section
SMILES	Rango-impB inh	Rango release inh	miR-21 reporter	GLA inh pH 4.5
C/C(=N\Nc1ccccn1)c1cccs1	-1.0%	7%	-52%	-2
C/C(CC(=O)Nc1ccccn1)=N\NC(=O)c1ccccc1O	-2.8%	-12%	?	nt
O=C(O)C(Cc1ccccc1)N=C(NS(=O)(=O)c1ccccc1)c1ccccc1 (centres undefined)	0.4%	15%	nt	nt
CCOC(=O)N1CCN(C(=O)CS(=O)Cc2nc(-c3cccc(C)c3)oc2C)CC1 (centres undefined)	1.4%	18%	-2%	-4
O=C(CSc1nnc(-c2c[nH]c3ccccc23)n1CC1CCCO1)Nc1ccc2c(c1)OCCO2 (centres undefined)	-0.9%	-4%	-14%	-2
Cc1cnc(C(=O)OCC(=O)N2CC(C)CC(C)C2)cn1 (centres undefined)	1.9%	1%	nt	nt
CC(=O)c1cccc(NC(=O)C2=CC(c3ccco3)=NS(=O)(=O)N2C)c1	1.8%	2%	-20%&2%	nt
Cc1nn(CC(=O)N2c3ccccc3NC(=O)C2(C)C)c(C)c1[N+](=O)[O-]	0.2%	0%	-3%	-8
COc1ccccc1NC(=S)N(CCN(C)C)C(C)c1ccncc1 (centres undefined)	0.9%	0%	-1%	5
Cc1ccc(N2C(=S)SC3CS(=O)(=O)CC32)cc1 (centres undefined)	-1.6%	-15%	-2%	-5
CCC(NC(=O)COC(=O)C1CC2CCCC(C1)C2=O)c1ccc(Br)cc1 (centres undefined)	0.0%	-12%	nt	nt
Cc1ccc(NC(=O)N2CCC(=O)N2)cc1	-0.3%	-6%	-53%	-27
O=C(COC(=O)c1ccccc1C(F)(F)F)NC(=O)NCc1ccco1	-1.7%	-5%	nt	nt
COc1cccc(CNCCOCCO)c1OC	-0.6%	5%	-3%	3
Cc1ccc(NC(=O)Cn2cnc3c(oc4nc5c(cc43)COC(C)(C)C5)c2=O)cc1	0.5%	1%	-5%	10
Cc1cccc(C(=O)Oc2ccccc2/C=N/Nc2ccc([N+](=O)[O-])cc2)c1	?	?	-16%	-6
O=c1[nH]c2ccccc2n1CCCOc1ccccc1	0.8%	-4%	-40%	2
COc1ccccc1CC(=O)N1CCOCC1	-0.3%	15%	-2%	nt
CCOC(=O)C(NCc1ccco1)(NC(=O)c1ccc(OC)cc1)C(F)(F)F (centres undefined)	-1.4%	10%	0%	-5
Brc1ccc(C2=NC(Cc3ccccc3)CO2)cc1 (centres undefined)	-0.5%	4%	-84%	?

Another view of part of the listing above:
molecule,Rango-impB inh,Rango release inh,miR-21 reporter,GLA inh pH 4.5
COc1ccccc1CC(=O)N1CCOCC1,-0.3%,15%,-2%,nt
CCOC(=O)C(NCc1ccco1)(NC(=O)c1ccc(OC)cc1)C(F)(F)F (centres undefined),-1.4%,10%,0%,-5

Grouped by structure, the compounds so far containing an aryl thioether with sulfur outside any ring.
SMILES	Rango-impB inh	Rango release inh	miR-21 reporter	GLA inh pH 4.5
CC(NC(=O)CSc1nc(=O)cc(N)n1CCc1ccccc1)c1ccccc1 (centres undefined)	0.3%	-3%	2%	-20
CC(C)C(=O)Nc1ccc(C(=O)CSc2nnc(C3CC3)n2C2CC2)cc1	-1.1%	-5%	nt	nt
CSc1nc2ccc(NC(=O)c3ccc(=O)[nH]c3)cc2s1	-0.1%	-6%	-14%	nt
Cc1ccc(-c2nc(SCC(=O)N(C)C3CCS(=O)(=O)C3)[nH]c2-c2ccc(C)cc2)cc1 (centres undefined)	5.7%	12%	4%	0
CC(Sc1nnnn1C1CC1)C(=O)N1CC(=O)Nc2ccccc21 (centres undefined)	-4.5%	-9%	nt	nt
O=C(CSc1nnc(-c2c[nH]c3ccccc23)n1CC1CCCO1)Nc1ccc2c(c1)OCCO2 (centres undefined)	-0.9%	-4%	-14%	-2

Continuation:
SMILES	Rango-impB inh	Rango release inh	miR-21 reporter	GLA inh pH 4.5
CN1CCN(C(c2ccccn2)c2cc(Cl)c3cccnc3c2O)CC1 (centres undefined)	1.8%	-5%	29%	-1
COCCCNC(=O)/C(C#N)=C1\N=C(NC(=O)c2cccs2)c2ccccc21	?	?	-22%	-4
O=C(NCCC1=CCCCC1)c1ccc(-n2cncn2)c([N+](=O)[O-])c1	0.7%	0%	nt	nt
CCn1c(=N)c(C(=O)NCc2cccnc2)cc2c(=O)n3cccc(C)c3nc21	nt	nt	-5%	2
O=C(CSc1nc(-c2ccccc2)cs1)Nc1cccc([N+](=O)[O-])c1	1.0%	9%	-14%	3
CCOC(=O)C1Nc2ccc(C(=O)O)cc2C2C=CCC12 (centres undefined)	?	-20%	0%	nt
Cc1ccsc1/C=N/NC(=O)c1nnn(-c2nonc2N)c1C(C)C	8.4%	-8%	-3%	nt
CCN(CC)C(=O)C(=O)Nc1ccc(OCc2ccccc2)cc1	2.8%	1%	-20%	-9
c1ccc(-n2c(-c3ccncc3)nnc2N2CCOCC2)cc1	-1.0%	8%	-10%	5
OCCNCc1cccc2ccccc12	4.5%	0%	0%	6
O=C(CSc1nnc(CCCN2C(=O)c3cccc4cccc(c34)C2=O)n1-c1ccccc1)NCCCO	4.5%	0%	-15%	11
Cn1c(Cc2ccccc2)nnc1SCCC(=O)Nc1ccccc1	0.6%	0%	1%	9
CC(C)N1CCC(=NNC(=O)c2ccccc2[N+](=O)[O-])CC1	0.1%	1%	-10%	3
CC(C)(C)c1ccc(-c2nc3c(C#N)c(-c4ccc5c(c4)OCO5)ccn3n2)cc1	?	-16%	-6%	?
COc1ccc(Br)cc1CN(C)C(=O)c1ccncc1	0.0%	-9%	-14%	nt
CCc1ccc(CC2(O)CC(C)N(C)CC2C)cc1 (centres undefined)	0.5%	-4%	-2%	2
Cc1cc(Cl)cc2c(N=Nc3ccccc3C(=O)O)c(O)[nH]c12	-0.1%	2%	-13%	nt
CCc1ccc(OC)c(S(=O)(=O)N2CCN(C(=O)c3ccco3)CC2)c1	0.1%	-6%	-2%	nt
CC(=O)Nc1ccc(NC(=O)/C=C/c2ccccc2)cc1	-3.4%	4%	-43%	-11
CN(CC(=O)Nc1ccc(Cl)cc1)Cc1cc(=O)n2ccsc2n1	2.1%	4%	-22%	4
O/N=C/c1ccc(OCc2ccccc2)c(Cl)c1	4.3%	4%	-73%	-14
CCOc1ccccc1-c1noc(CCC(=O)Nc2cccnc2)n1	-2.0%	0%	1%	nt
O=C1N[C@@H](c2ccccc2)COC(=O)[C@H](Cc2ccc(F)cc2)CC/C=C/C[C@@H]1CC(=O)N(CCO)Cc1ccccc1	-2.1%	5%	nt	nt
Cc1ccc(NC(=O)c2cc(C)nc3ccccc23)c(C)c1	-0.2%	2%	-7%	nt
CCN(CC)S(=O)(=O)c1cccc(NC(=S)NC(=O)/C=C/c2ccc(S(=O)(=O)N3CCOCC3)cc2)c1	3.3%	-4%	1%	-5
CC(C)(C)C(=O)Nc1cc(S(=O)(=O)Nc2ccc(Cl)cc2)ccc1Cl	0.0%	0%	20%	-1
